NPYLR7 agonist: mosquito NPYLR7 agonism; HEK293T NPYLR7/Galpha15, GCaMP6s calcium fluorescence; activation, % at 10 µM; 0.15% of 270,000 active; AID 1259423; in the data active = activation above about 40%;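 note: 0% = vehicle and 100% = reference agonist at the receptor; some compounds past the cut are filed as inactive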
NPYLR7 agonist max-min: further read-out of NPYLR7 agonist, marked with its call; activation, %; measured here: Max-Min RFU normalised activation; some inactives read as strong as hits;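 span of the calcium signal over five minutes; 0% = vehicle and 100% = native peptide agonist; compound fluorescence can raise it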
* marks the source's active call; other numbers are inactive results; & = joins results of further samples. An excerpt; the hit share may differ from the screen's.

SMILES | NPYLR7 agonist | NPYLR7 agonist max-min
O=C(NCCCN1CCCC1=O)C(C1CCCC1)N1CCN(C(=S)Nc2ccc(F)cc2)CC1 (centres undefined) | -21 | -15
O=S(=O)(c1ccc(F)c(Cl)c1)N1CCN(c2nccc(-c3cccc(C(F)(F)F)c3)n2)CC1 | 6 | -5
Cc1ccc(C)c(Cc2c(C)nc(C)nc2N2CCN(C(=O)CCc3ccccc3)CC2)c1 | 0 | 0
Cc1nnc(SCC(=O)N(C)C(C)c2ccc3ccccc3c2)o1 (centres undefined) | 4 | 1
Cc1ccccc1OCC(=O)N1CCCn2nc(C(=O)Nc3ccccc3)cc2C1 | 10 | 5
O=[N+]([O-])c1ccc(NN=CC2CCCCC2)cc1 | 12 | 11
O=C(C1CCC1)N1CCN(CC(OCc2c(F)cccc2F)c2ccc(Cl)cc2)CC1 (centres undefined) | 2 | 4
CCCc1cc(C(=O)N2CCC(Cc3nn(C)c(=O)n3CC)CC2)ccn1 | 15 | 8
O=C(CC1CCCC1)NC12CC3CC(CC(C3)C1)C2 | 0 | -2
CC(C)CC(=O)NC(C(=O)NCc1ccc(F)cc1)C1CCN(C(=O)c2cccc(F)c2)CC1 (centres undefined) | 4 | 4
CCOc1ccccc1C(=O)N1CCc2cc(OC)c(OC)cc2C1c1ccc(OC)c(OC)c1 (centres undefined) | 19 | 4
COCCN(CC(=O)Nc1cc(C)nn1C)C(=O)OC(C)(C)C | 2 | 3
C#CCOCC(O)CN(Cc1ccc(F)cc1F)CC1CC(c2ccc(OC)cc2)=NO1 (centres undefined) | -4 | 2
CCN(Cc1nccn1C)C(=O)CC1C(=O)NCCN1Cc1ccc(C)o1 (centres undefined) | 0 | -4
O=C(CCCN1C(=O)C2C3C=CC(C3)C2C1=O)Nc1nccs1 (centres undefined) | 0 | -2
O=C1C2CCCN2C(=S)N1c1ccc(Cl)cc1 (centres undefined) | 2 | -1
C#CCOCC(O)CN(Cc1ccccc1)Cc1c(-c2ccccc2)nn(C)c1Oc1ccc(C)cc1 (centres undefined) | -9 | -10
O=C(c1cncc(Br)c1)N1CCN(c2nc3nccc(-c4cccc(C(F)(F)F)c4)n3n2)CC1 | 4 | 1
COCc1cc(N2CCN(c3ccc(OC)cc3)CC2)nc(SCc2ccc(C(=O)NCc3ccccn3)cc2)n1 | 12 | 11
Cc1cc(C)n(-c2ccc(N3CCN(C(=O)CCc4ccccc4)CC3)nn2)n1 | -5 | -10
c1ccc(OCc2noc(CN3CCN(c4ccccn4)CC3)n2)cc1 | 13&2 | 3&-1
CC1(c2ccc(Br)cc2)NC(=O)N(CN2CCN(c3ccccn3)CC2)C1=O (centres undefined) | 7 | 3
Cc1ccc(NC(=O)C(C)NC(=O)C(=O)c2ccco2)c(F)c1 (centres undefined) | 9 | 7
COC(=O)c1ccc([N+](=O)[O-])s1 | -16 | -21
CCOC(=O)c1c(NC(=O)C(=O)c2c[nH]c3ccccc23)c(-c2cccc(F)c2)cn1C | 26 | 21
CSc1cccc(CN2CCC(CCC(=O)Nc3ccccc3)CC2)c1 | 5 | 3
O=C(CCCn1cnc2ccccc2c1=O)Nc1ccc(Cl)c2ncccc12 | 1 | 10
Nc1ccccc1NC(=O)c1cc(=O)c2cc(Br)ccc2o1 | 6 | 5
Cc1ccc(N(C)S(=O)(=O)c2c(-c3ccccc3)csc2C(=O)O)cc1 | -16 | -18
COc1ccc(OC)c(CN2CCCn3cccc3C2c2ccc(F)cc2F)c1 (centres undefined) | 29 | 35
CCc1ccc(CN(C)C(=O)c2c(O)cccc2O)nc1 | -1 | -6
Cc1cc(NC(=O)c2ccc(F)cc2Cl)sc1C(=O)OC1CC(C)OC1=O (centres undefined) | -2 | 25
CCOC(=O)C1(Cc2cccc(Cl)c2)CCCN(C)C1 (centres undefined) | 1 | 2
CCCS(=O)(=O)NCc1ccc2c(c1)cc(C)n2C | -1 | 2
Cc1ccccc1NCN1C(=O)c2ccccc2C1=O | 5 | 8
N#CCSc1ccc2nnc(CCNS(=O)(=O)c3ccccc3)n2n1 | 6 | -2
CC(=O)N1CCN(C(=O)CSc2nc(Cl)cc(N3CCN(C(=O)NC(C)C)C(C)C3)n2)CC1 (centres undefined) | 21 | 25
CN(Cc1ccc(-n2cccn2)cc1)Cc1cccc2nccnc12 | -3 | -2
S=C(NNC(=S)Nc1ccc(Cl)c(Cl)c1)Nc1cccnc1 | -12 | -17
O=C(Cn1cnc([N+](=O)[O-])n1)Nc1cc(Oc2ccccc2)cc([N+](=O)[O-])c1 | -31 | -34

Copied from the list:
NPYLR7 agonist max-min result of `CSc1cccc(CN2CCC(CCC(=O)Nc3ccccc3)CC2)c1` reads 3
NPYLR7 agonist max-min result of `CC(=O)N1CCN(C(=O)CSc2nc(Cl)cc(N3CCN(C(=O)NC(C)C)C(C)C3)n2)CC1` (centres undefined) reads 25
NPYLR7 agonist result of `Nc1ccccc1NC(=O)c1cc(=O)c2cc(Br)ccc2o1` reads 6
NPYLR7 agonist result of `N#CCSc1ccc2nnc(CCNS(=O)(=O)c3ccccc3)n2n1` reads 6
NPYLR7 agonist max-min result of `O=C(Cn1cnc([N+](=O)[O-])n1)Nc1cc(Oc2ccccc2)cc([N+](=O)[O-])c1` reads -34

Retrieved by structure from the list above:
SMILES | NPYLR7 agonist | NPYLR7 agonist max-min
N#CCSc1ccc2nnc(CCNS(=O)(=O)c3ccccc3)n2n1 | 6 | -2
COc1ccc(OC)c(CN2CCCn3cccc3C2c2ccc(F)cc2F)c1 (centres undefined) | 29 | 35

(continued)
SMILES | NPYLR7 agonist | NPYLR7 agonist max-min
CC(C)N(Cc1c(-c2ccc(F)cc2)noc1N1CCN(C)CC1)C(=O)c1cccc(C(F)(F)F)c1 | 7 | 9
COCCN(CC(=O)N(CCc1ccc(OC)c(OC)c1)Cc1ccc(C)o1)C(=O)c1ccc(Cl)cc1 | 4 | 10
Cc1ccc(Cn2c(=O)c3c(nc4n3CCCN4Cc3ccccc3)n(C)c2=O)cc1 | 1 | -1
CCn1c(SCC(=O)N/N=C\c2ccccc2OCC(=O)O)nc2ccccc21 | 4 | 10
CC(C)(C)c1cc2nc(-c3ccccc3Cl)cc(C(=O)N3CCN(Cc4ccccc4)CC3)n2n1 | -13 | -13
OC[C@H]1O[C@@H](O[C@H]2[C@H](O)[C@@H](O)[C@@H](O)O[C@@H]2CO)[C@H](O)[C@@H](O)[C@@H]1O | -2 | -9
Cc1cccc(NP(=O)(Nc2cccc(C)c2)Nc2cccc(C)c2)c1 | -7 | -11
CCc1nnc(CNC(=O)C2COc3c(cccc3OC)C2)s1 (centres undefined) | 9 | 5
COc1ccc(-n2ccnc2CN2CCC(CNC(C)=O)C2)cc1 (centres undefined) | 6 | 4
c1ccc(-c2nnc(CSc3nc4ccccc4c4nc5ccccc5n34)o2)cc1 | 1 | -6
Cc1cccc(C2c3[nH]c4ccccc4c3CCN2C(=O)c2cccc(F)c2F)n1 (centres undefined) | 9 | -2
CCN1CCN(Cc2cc3oc(C)c(-c4ccccc4)c3cc2OC)CC1 | -6 | -8
O=C(NCc1cccnc1)c1cc(=O)c(OCc2ccccc2)co1 | 1 | -1
CC(C)C1CN(CCn2ccnc2)CCCN1Cc1ccc(F)cc1 (centres undefined) | 8 | 5
CCc1c(C)nn(CC(=O)NCCC2CN(C)CCO2)c1C (centres undefined) | 2 | 0
Nc1ncnc2c1nc(Br)n2[C@@H]1O[C@@H]2COP(=O)(O)O[C@H]2[C@H]1O | -8 | -4
O=C(NCc1nnc(SCC(=O)N2CCCC2)o1)c1ccco1 | 11 | 2
CC(NC(=O)C1CC(c2cccc(F)c2)=NO1)c1ccc(F)cc1F (centres undefined) | 3 | 0
COc1ccc(CCn2c(C)c3c(C)nn4cc(C)cc4c3c2C)cc1OC | -9 | -19
CC(C)n1c2c(=O)n(C)c(=O)n(C)c2n2c(-c3ccc(Br)cc3)nnc12 | 7 | 3

Part of the list above in a different format.
SMILES: CC(C)(C)c1cc2nc(-c3ccccc3Cl)cc(C(=O)N3CCN(Cc4ccccc4)CC3)n2n1
  NPYLR7 agonist = -13	NPYLR7 agonist max-min = -13

SMILES: OC[C@H]1O[C@@H](O[C@H]2[C@H](O)[C@@H](O)[C@@H](O)O[C@@H]2CO)[C@H](O)[C@@H](O)[C@@H]1O
  NPYLR7 agonist = -2	NPYLR7 agonist max-min = -9

SMILES: Cc1cccc(NP(=O)(Nc2cccc(C)c2)Nc2cccc(C)c2)c1
  NPYLR7 agonist = -7	NPYLR7 agonist max-min = -11

(further entries)
SMILES | NPYLR7 agonist | NPYLR7 agonist max-min
CCCCOc1ccc(C(=O)Nc2cc(C)nn2-c2nc(C)cc(=O)[nH]2)cc1 | -5 | -3
CN(Cc1cnc(N)nc1)CC1(O)CCCN(CCc2ccccc2)C1=O (centres undefined) | 2 | -2
CN(C)c1ccc(NC(=O)C2CC2)cc1CN(CC1CCCO1)S(=O)(=O)c1ccc(F)cc1 (centres undefined) | -5 | 7
O=C(NC1CC1)C1CCCN(c2ncnc3c2nc2n3CCCCC2)C1 (centres undefined) | 2 | -1
CC(=O)NCc1cccc(-c2ccccc2Cl)c1 | 2 | 3
Brc1ccc2c(c1)C1(CCCC1)CN2 | 10 | -4
Cc1nc2n(n1)C(=O)C(C(c1ccccc1Cl)N1CCC(O)CC1)S2 (centres undefined) | -3 | -10
Cc1ccccc1NC(=O)COC(=O)CCCn1c(C)csc1=O | 8 | 3
Cc1nnc(SCCC#N)n(CCC#N)c1=O | 0 | -2
CC(c1cccc(Cl)c1)N(C)c1ccc(C#N)cn1 (centres undefined) | -2 | -4
O=C(Nc1ccc(Br)cn1)C1CCCN(Cn2nc(-c3ccc(F)cc3)oc2=O)C1 (centres undefined) | 8 | 3
CCCc1nnc(-c2cc3ccccc3n2CC(=O)Nc2ccc(OCC)cc2)o1 | -2 | -2
Cc1c(Cn2ccnc2-c2ccc(Sc3nncn3C)o2)cnn1C | 2 | -2
COc1ccc(Cl)cc1-c1nc(C23CC4CC(CC(C4)C2)C3)no1 | 2 | 1
Cc1cc(NC(=O)c2ccco2)sc1C(=O)Nc1cccc(Cl)c1 | 2 | 2
COCCCNC(=O)c1n[nH]c2c1CN(C(=O)c1cc(C)cc(C)c1)CC2 | 7 | 8
CC(NC(=O)CNC(=O)Cc1ccccc1)c1ccc(Cl)cc1 (centres undefined) | 7 | 5
CCCCc1ccc(C(=O)N2CCN(c3cc(C)nc(-c4cccc(F)c4)n3)CC2)cc1 | 6 | 12
CCOc1cccc(OCCOc2ccccc2)c1 | 6 | 1
CC1=Cc2nc3ccccc3n2C2(C(F)(F)F)OC(c3ccncc3)=NN12 (centres undefined) | -5 | -8
O=C(NCc1ccc(Cl)nc1)c1ccc2sc([C@@H]3O[C@H](CO)[C@H](O)[C@H](O)[C@H]3O)nc2c1 | 0 | -1
CCCCN(Cc1cccn1Cc1ccccc1Cl)C(=O)C(c1ccccc1)c1ccccc1 | 12 | 20
CN1CCN(c2ncc(C(=O)N3CCCCC3)s2)C1=O | -1 | -3
N#CC1C(=N)Oc2n[nH]c(C(F)(F)F)c2C1c1ccc(F)cc1 (centres undefined) | -8 | -7
CN(Cc1ccncc1)C(=O)Nc1ccc(C#N)cc1 | 0 | -1
COc1ccc(CNCc2nnc(C)n2C)cc1OCCC(C)C | 4 | 4
CCOc1ccc(-c2cn3c(CC(=O)N4CCN(c5ccccc5)CC4)csc3n2)cc1 | -1 | -4
CCOC(=O)c1nn(-c2ccc(OC)cc2)c(=O)c2c(NC(=O)CCC3CCCCC3)scc12 | -1 | 0
COc1cccc(C(=O)Oc2cc(C)[nH]c(=O)c2[N+](=O)[O-])c1OC | 2 | 0
CC12CCC(C(=O)O)(c3nc(C#N)c(C#N)nc31)C2(C)C (centres undefined) | -3 | -6
Cc1nnc(NC(=O)c2ccc(S(=O)(=O)N3CCCCC3)cc2)s1 | 4 | 3
CCOc1ncccc1C(=O)N1Cc2cnc(Cc3ccc(OC)cc3)nc2C1 | 3 | 2
CCCCC(CC)C(=O)N1CCN(c2nccc(-c3ccc(Oc4ccccc4)cc3)n2)CC1 (centres undefined) | 4 | 0
CC(C)CC(NC(=O)c1cc(C(C)C)nn1C)c1ncnn1C (centres undefined) | 1 | -3

Nothing new here: an excerpt of the list.
SMILES | NPYLR7 agonist | NPYLR7 agonist max-min
CCCCC(CC)C(=O)N1CCN(c2nccc(-c3ccc(Oc4ccccc4)cc3)n2)CC1 (centres undefined) | 4 | 0
CC(C)CC(NC(=O)c1cc(C(C)C)nn1C)c1ncnn1C (centres undefined) | 1 | -3

Source: PubChem BioAssay (Fisher Drug Discovery Resource Center)
